GIV Gai3 FP = inhibitors of GIV peptide binding to Galpha-i3, primary screen, biochemical, fluorescence polarization, FITC-GIV GBA peptide, rat Galphai3. Guanine nucleotide-binding protein G(i) subunit alpha-3 (Rattus norvegicus), P08753. 210,000 compounds, 0.42% hits. 90 min; hits give low values; scaled: aluminum fluoride 0%, vehicle 100%. AID 1224905, 2016. percent of control (FP), % (concentration not given with the values);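 active means replicate mean at 85% of control or lower, very high polarization wells dropped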;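 further: wells of about 15 µL received 100 nL stock; the first replicate is given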
Target sequence (P08753 whole entry, looked up): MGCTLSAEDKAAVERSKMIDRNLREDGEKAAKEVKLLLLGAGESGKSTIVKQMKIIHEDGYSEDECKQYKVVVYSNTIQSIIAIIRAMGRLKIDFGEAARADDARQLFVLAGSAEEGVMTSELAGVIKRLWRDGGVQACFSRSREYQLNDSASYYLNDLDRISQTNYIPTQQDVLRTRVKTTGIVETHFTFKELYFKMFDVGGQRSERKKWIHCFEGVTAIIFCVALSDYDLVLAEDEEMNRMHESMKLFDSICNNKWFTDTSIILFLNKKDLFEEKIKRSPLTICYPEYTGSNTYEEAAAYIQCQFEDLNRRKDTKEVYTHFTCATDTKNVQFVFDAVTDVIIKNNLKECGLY
Active calls of the source: *. A portion of the library (hit frequency here may not be typical).

SMILES	GIV Gai3 FP
CCCS(=O)(=O)c1c(S(=O)(=O)CCC)c2cc(-c3ccncc3)ccn2c1C(=O)N/N=C/c1cc(O)cc(O)c1	111.2
CCOc1ccc(C2(O)CN(c3cccc(C)c3C)C3=[N+]2CCCC3)cc1 (stereo not given)	103.0
CC1=C(n2cnc([N+](=O)[O-])c2)C(c2cccnc2)C(C#N)=C(N)O1 (stereo not given)	106.7
Cc1cccc(NC(=O)c2sc3nc4c(c(-c5ccco5)c3c2N)CCCC4)c1	109.1
CCOC(=O)c1sc2nc(CC(=O)OC)nc(NCCCN3CCOCC3)c2c1C	105.9
Cc1cc(N2CCOCC2)n2nc(CN3CCCC(C)C3)nc2n1 (stereo not given)	99.0
O=C(Nn1c(SCc2cc(=O)n3cc(Cl)ccc3n2)nc2ccccc2c1=O)c1ccccc1	111.1
CC1CCN(c2cc(N3CCN(C(=O)c4cccc(F)c4F)CC3)c([N+](=O)[O-])cc2F)CC1	108.9
O=C(CSc1ncnc2c1[nH]c1ccccc12)N1CCc2ccccc2C1	108.4
Cc1cc(=O)oc2c3c(ccc12)OCN(c1ccccc1Cl)C3	108.8
O=C1CCCC2=C1C(c1ccccc1)C1C(=O)c3ccccc3C1=N2 (stereo not given)	111.9
CCNC(=S)N1CCN(CCN=C(C)c2c(C(F)(F)F)[nH]n(-c3nc4ccccc4s3)c2=O)CC1	103.5
COc1cccc(C2=N/C(=C/c3ccccc3OC)C(=O)N2c2ccc(OC)c(OC)c2)c1	113.8
Clc1cccc(Cl)c1-c1nnc2cccc(Cl)n12	110.7
Cn1c(=O)n(CCN2CCOCC2)c(=O)c2cnc(-c3cccnc3)nc21	104.8
CCOc1ccccc1N/C(SCc1ccccc1F)=C(/C#N)C(=O)NCc1cccs1	122.4
Cc1cc(NC(=O)CSc2nc3cc(C(=O)NCCCOC(C)C)ccc3c(=O)n2Cc2ccco2)no1	107.3
CC(C)CNc1ccc2nncn2n1	94.6
O=C(CCC(=O)N1CCN(C2CCCCC2)CC1)N1CCCN(c2nc3cccnc3s2)CC1	102.0
COc1ccc(-c2csc(Cc3nc(-c4ccc(C)cc4)no3)n2)cc1	115.0
CSc1nc(N)nc(SCC(=O)Nc2ccccc2[N+](=O)[O-])c1C#N	110.1
CCOc1cccc(-c2noc(CCn3nc(-c4ccc(Cl)cc4)ccc3=O)n2)c1	105.1
COc1ccc(Cl)cc1-n1c(=S)sc2c(=O)[nH]c(SCC(=O)Nc3cc(C)on3)nc21	105.8
CCc1nnc(NC(=O)CSc2nnc(NC(=O)c3cccc([N+](=O)[O-])c3C)s2)s1	107.7
CCOC(=O)C1=c2s/c(=C/c3ccc(CC)cc3)c(=O)n2C(N)=C(C#N)C1c1ccc(CC)cc1 (stereo not given)	102.5
CCCCCCCCCCCCCCCCCCNS(=O)(=O)c1ccc2c(c1)C(=O)c1cc(S(=O)(=O)NCCCCCCCCCCCCCCCCCC)ccc1-2	108.6
CCN(CC)c1nc2ccccc2nc1C(=O)Nc1ccc2c(c1)c1ccccc1n2CC	107.3
CNC(=O)CN1C(=O)CN(C(=O)NCc2ccccc2)c2ccccc21	102.4
CC(C)N(C1CCCCC1)S(=O)(=O)c1ccc2c(c1)N(Cc1noc(C3CCC3)n1)C(=O)CO2	103.9
COc1ccc(Br)c(-c2nc(Cc3ccccc3Cl)no2)c1	109.8
CCn1nccc1C(=O)N1CCN(c2ncnc3c2CCC3)CC1	95.0
O=C(NC1CCCC1)c1cncc(-c2ccc(F)cc2)c1	104.5
COc1ccc(C2c3[nH]c4ccccc4c3CCN2C(=O)c2ccc(F)cc2F)cc1 (stereo not given)	103.3
Cc1cccc(-n2nc3c(c2NC(=O)c2ccc(S(=O)(=O)N4CCCC4)cc2)CS(=O)(=O)C3)c1C	110.0
Cc1ccc(NCC(O)Cn2c(-c3ccccc3)c(-c3ccccc3)c3ccc4ccccc4c32)cc1 (stereo not given)	104.5
CC(C)C(NC(=O)c1ccc2c(c1)OCCO2)c1ccc2c(c1)OCCCO2 (stereo not given)	111.8
Cc1cc(C(=O)C2CC(=O)Nc3c2c(C)nn3-c2ccc(Br)cc2)c(C)s1 (stereo not given)	106.5
Cc1ccc(-c2ccc(C3C4=C(CC(C)(C)CC4=O)OC4=C3C(=O)CC(C)(C)C4)o2)cc1Cl	119.6
COc1ccc(N=C2NC(=O)/C(=C\c3ccc(OC)c(OC)c3)S2)cc1	114.0
COc1ccc(NC(=O)c2ccc(-c3nc4ccccc4n(CC(C)C)c3=O)cc2)cc1OC	102.2
CCCNS(=O)(=O)c1ccc2c(c1)N(Cc1noc(C3CCC3)n1)C(=O)CO2	97.4
COc1cc(OC)c(C2CC(=O)Nc3c2ccc2ccccc32)cc1OC (stereo not given)	107.7
COc1cccc2cc(-c3nnc(NC4CCCCC4)s3)c(=O)oc12	112.7
O=C(Nc1ccc(Cl)cc1)Nc1cccc(-c2nnc(-c3ccccc3)o2)c1	102.6
Cc1ccc(NC(=O)CCc2nc(CSc3nc(-c4ccccc4)cs3)no2)cc1	101.7
CC(C)(C)C(=O)Nc1cc(-c2ccccc2F)nn1-c1ccccc1	106.5
O=c1n(Cc2cccc(C(F)(F)F)c2)nc2c(S(=O)(=O)N3CCc4ccccc4C3)cccn12	112.3
CC(=O)C1=NN(c2ccc(C)cc2)C2(S1)SC(c1ccc(Cl)cc1)(c1ccc(Cl)cc1)c1ccccc12 (stereo not given)	103.4
CCOC(=O)c1sc(=S)n(Cc2ccccc2)c1N	97.6
Brc1ccc(-c2nc3ccccc3nc2-c2ccc(Br)cc2)cc1	111.5
More results follow:
SMILES	GIV Gai3 FP
CC1(C)Cc2c(c(-c3ccccc3)nc3oc4c(-c5ccc(Br)cc5)ncnc4c23)CO1	110.2
CCOc1cc(C2CC(=O)Nc3c2ccc2ccccc32)cc(Br)c1OC (stereo not given)	113.2
CN(Cc1ccccc1)C(=O)CSc1nc2cc(C(=O)NCC3CCCO3)ccc2c(=O)n1Cc1ccco1 (stereo not given)	101.5
CN1C2=NC(=O)/C(=C\c3ccc([N+](=O)[O-])cc3)N2c2ccccc21	116.1
COc1ccc(NC(=O)CN(c2cc(C(F)(F)F)ccc2Cl)S(=O)(=O)c2ccccc2)cc1	109.9
CCSc1nc2ccc(NC(=O)CSc3nnc(C)s3)cc2s1	116.3
COc1cc(C2=N/C(=C/c3c(OC)ccc4ccccc34)C(=O)O2)cc(OC)c1OC	109.1
CCOC(=O)c1sc2nc(CC(=O)OC)nc(Nc3cccc([N+](=O)[O-])c3)c2c1C	96.1
Cc1nn(CC(=O)N2CCCC2)c(C)c1S(=O)(=O)N1CCCC(C(=O)Nc2ccccn2)C1 (stereo not given)	108.5
CCSc1nnc(-c2nn(C)c3c2CN(C(=O)C2CC2)CC3)n1C	97.6
CCOc1cccc2cc(C(=O)Nc3ccccc3)c(=Nc3ccc(C(=O)O)cc3)oc12	111.6
COC(=O)C1=C(C(=O)OC)SC2(S1)C(C(=O)OC)=C(C(=O)OC)SC1=C2c2cc(OC)ccc2N(C(=O)Cc2ccccc2)C1(C)C	105.3
O=C1CN(Cc2ccc(F)cc2)S(=O)(=O)c2ccccc2N1Cc1cccc(F)c1	107.9
CC1(C)CC(=O)C2=C(C1)c1c(ccc3ncccc13)NC2c1ccccc1 (stereo not given)	106.1
Cc1ccc(NC2=CC(c3ccc(F)cc3)N(c3ccc(C)cc3)C2=O)cc1 (stereo not given)	105.8
N#Cc1cc2c(cc1C#N)-n1c(-c3ccccc3)nnc1-c1ccccc1O2	106.4
Cc1ccc(C)c(N2CCN(S(=O)(=O)c3cccc4nonc34)CC2)c1	107.1
COc1cc(C2C(C(=O)N3CCCCC3)=C(C)NC3=C2C(=O)CC(C)(C)C3)cc(Cl)c1O (stereo not given)	94.5
Cc1ccccc1-n1nnnc1C(C)(C)N(C)C	100.5
COc1ccccc1CNC(=O)C1CCN(c2ncccc2-c2nc(-c3cccc(C)c3)no2)CC1	107.8
Cc1nc(-c2cc(NC(=O)c3cccc(Br)c3)c(C)s2)no1	99.6
O=C(NC1CCCC1)C1CCCN(C(=O)c2ccc(NS(=O)(=O)c3ccc(F)cc3)cc2)C1 (stereo not given)	106.8
CN(C)S(=O)(=O)c1ccc(-c2nnc(C(=O)NCc3ccc(Br)cc3)o2)cc1	105.8
COc1nc(Nc2ccc(C)cc2)nc(NC2CCCCC2)n1	107.2
COC(=O)c1ccc2c(=O)n(-c3cc(C)cc(C)c3)c(N3CCN(C(C)C)CC3)nc2c1	105.8
CS(=O)(=O)Nc1ccc(-c2noc(Cc3ccc(Br)cc3)n2)cc1	99.1
c1cc2c(cc1Nc1nc(N3CCCCC3)nc(N3CCCCC3)n1)OCO2	106.2
CCOCCCNC(=O)CCc1nc(N2CC(C)CC(C)C2)c2c(C)noc2n1 (stereo not given)	95.9
Cc1cc(C2CCCN2C(=O)c2cc3nc(C4CC4)cc(C(F)(F)F)n3n2)on1 (stereo not given)	103.6
COc1ccc(CN2C(=O)C3C(c4ccccc4)OC4(C(=O)c5ccccc5C4=O)C3C2=O)cc1 (stereo not given)	104.9
O=S(=O)(Nc1cccc(-c2nnc(-c3ccccc3)o2)c1)c1ccc2c(c1)CCCC2	99.7
Cc1ccccc1Nc1nc(NCc2ccco2)c2ccccc2n1	102.6
CCC1CCCCN1C(=O)CSc1nc2ccccc2c(=O)n1CCC(=O)N1CCN(c2ccccc2)CC1 (stereo not given)	109.9
O=C(Nc1nnc(SCc2nnc(-c3ccccc3)o2)s1)C1CCCCC1	104.8
COc1cccc(C2Sc3ccccc3NC3=C2C(=O)c2ccccc23)c1 (stereo not given)	122.1
Cc1ccc(-n2ccnc2SCc2nc(-c3cccc(C)c3)no2)cc1	107.8
Cc1nn(-c2ccc(Cl)cc2)c2sc(C(=O)Nc3ccc4c(c3)OCCO4)cc12	105.0
Cc1ccc(-c2[nH]nc3c2C(c2ccc(N4CCOCC4)c([N+](=O)[O-])c2)C(C#N)=C(N)O3)cc1 (stereo not given)	119.3
CC(C)c1nnc(-c2ccc(S(=O)(=O)N3CCN(C(C)C)CC3)o2)o1	105.5
CCOC(=O)c1c(S(=O)(=O)N2CCC(C(=O)Nc3ccc(Cl)cc3)CC2)c(C)n(C)c1C	103.0
O=C1CCCN2N=C(SCC(=O)Nc3nccs3)SC2=N1	111.0
O=C(N/C(=C\c1ccco1)C(=O)N1CCN(C/C=C/c2ccccc2)CC1)c1ccccc1	106.9
Cn1c2c(c(=O)[nH]c1=O)C(c1ccc(O)cc1)C1=C(N2)c2ccccc2C1=O (stereo not given)	103.2
O=C(NCC1CCCO1)c1nnc(-c2ccc(S(=O)(=O)N3CCOCC3)cc2)o1 (stereo not given)	108.1
Cc1ccc(NC(=O)CSC2=C(C#N)C(c3ccc(C(C)C)cc3)CC(=O)N2)cc1 (stereo not given)	107.8
CC(C)NC(=O)N1CCNC(=O)C1	95.8
CCOc1ccc(NC(=O)CSC2=C(C#N)C(c3ccc4c(c3)OCO4)CC(=O)N2)cc1 (stereo not given)	113.4
Cc1ccc2nsnc2c1S(=O)(=O)NCc1ccc(S(N)(=O)=O)cc1	108.3
CCc1ccc(S(=O)(=O)N2CCOc3ccc(COCc4ccc(F)cc4)cc3C2)cc1	97.7
Cc1[nH]nc(N)c1-c1ccc(Cl)cc1	97.8
Other compounds follow.
SMILES	GIV Gai3 FP
COc1ccc(OC)c(-c2[nH]ncc2CN2CCCC2c2cc(C(C)C)no2)c1 (stereo not given)	103.7
CCCCNC(=O)CCc1nc(N2CCOCC2)c2c(C)noc2n1	101.3
CC(C)c1ccc(/C=C2/SC(=S)N(CN3CCCC3)C2=O)cc1	115.4
Cc1nnc2ccc(-c3noc(-c4ccc(F)c(F)c4)n3)cn12	107.9
CCOC(=O)c1ccc(N2C=C(C(=O)OC)C(c3cc(Br)c(O)c(OC)c3)C(C(=O)OC)=C2)cc1	108.3
CCCCCCCCOc1ccc(C2C(N3C(=O)c4ccccc4C3=O)C(=O)N2c2ccc(C)cc2)cc1 (stereo not given)	106.1
NC(=O)c1ccsc1NC(=O)CS(=O)(=O)c1ccc(Cl)cc1	102.8
CCOC(=O)C1C(=O)NC(SCc2ccc(Cl)cc2)=C(C#N)C1c1ccccc1F (stereo not given)	109.0
O=C1/C(=C\c2cc(Br)ccc2O)SC(=S)N1C1CCCCC1	102.5
CC(=O)c1cccc(N2C(=O)C3C4c5ccccc5C(C(C)=O)(c5ccccc54)C3C2=O)c1 (stereo not given)	98.3
CCc1onc(C)c1C1CCCN1C(=O)NCC1CCCO1 (stereo not given)	97.8
COc1cc(OC)cc(C(=O)N2c3ccccc3N3C(c4c(C)c(C)c(Cl)c(C)c4C)=NON23)c1	112.0
COc1cccc2c1OC1(C)CC2/C(=C(\C)O)C(=O)N1 (stereo not given)	121.9
CCOc1ccc(N(CCc2noc(C)n2)S(=O)(=O)c2ccc(Cl)cc2)cc1	107.1

13 of the compounds above, in markdown:
| structure | GIV Gai3 FP |
| --- | --- |
| Cc1[nH]nc(N)c1-c1ccc(Cl)cc1 | 97.8 |
| COc1ccc(OC)c(-c2[nH]ncc2CN2CCCC2c2cc(C(C)C)no2)c1 (stereo not given) | 103.7 |
| CCCCNC(=O)CCc1nc(N2CCOCC2)c2c(C)noc2n1 | 101.3 |
| CC(C)c1ccc(/C=C2/SC(=S)N(CN3CCCC3)C2=O)cc1 | 115.4 |
| Cc1nnc2ccc(-c3noc(-c4ccc(F)c(F)c4)n3)cn12 | 107.9 |
| CCOC(=O)c1ccc(N2C=C(C(=O)OC)C(c3cc(Br)c(O)c(OC)c3)C(C(=O)OC)=C2)cc1 | 108.3 |
| CCCCCCCCOc1ccc(C2C(N3C(=O)c4ccccc4C3=O)C(=O)N2c2ccc(C)cc2)cc1 (stereo not given) | 106.1 |
| NC(=O)c1ccsc1NC(=O)CS(=O)(=O)c1ccc(Cl)cc1 | 102.8 |
| CCOC(=O)C1C(=O)NC(SCc2ccc(Cl)cc2)=C(C#N)C1c1ccccc1F (stereo not given) | 109.0 |
| O=C1/C(=C\c2cc(Br)ccc2O)SC(=S)N1C1CCCCC1 | 102.5 |
| CC(=O)c1cccc(N2C(=O)C3C4c5ccccc5C(C(C)=O)(c5ccccc54)C3C2=O)c1 (stereo not given) | 98.3 |
| CCc1onc(C)c1C1CCCN1C(=O)NCC1CCCO1 (stereo not given) | 97.8 |
| COc1cc(OC)cc(C(=O)N2c3ccccc3N3C(c4c(C)c(C)c(Cl)c(C)c4C)=NON23)c1 | 112.0 |
